Screening results deposited in PubChem BioAssay by several laboratories.
HNF4A DNA FP: change in binding of human HNF4 alpha to DNA. HNF4a-FITC DNA binding, fluorescence polarization, 1 h. activity change, % at 10 µM. 360,000 tested, 0.3% active. AID 1224865; in the data active = activity change above about 30%, passing the limit was not always enough;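 note: controls were the assay level and a saturating level of protein; the project sought stronger binding though the title names inhibitors; some compounds called inactive have numbers as strong as hits; positive values seem to mean higher polarization but the record does not say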
Beta2AR agonist: agonists of human beta-2 adrenergic receptor inducing internalization | P07550 | Am2.2-beta2AR cells, FAP receptor internalization, flow cytometry; reference of the scale not given here | response, % (no concentration beside the values) | 340,000 tested, 0.43% active | AID 504454;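 active = response above a set limit, near 3 SD of response in nonfluorescent compounds, cut at about 42% in these data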;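 note: stock transfer was 100 nL into about 11 µL; a reference agonist was the positive control; negative values mostly stem from fluorescent compounds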
Ecoli growth: inhibitors of Escherichia coli growth. 330,000 tested, 0.21% active. AID 1053175. OD600, 23 h; stronger effect = lower value. OD600 absorbance (no concentration beside the values);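 active = OD600 absorbance below the run mean of sample wells minus 3.6 SD, in any replicate, cut at about 0.56 in these data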;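 note: stock transfer was 300 nL into about 60 µL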
UCH37 inh: human UCH37 deubiquitinating enzyme inhibition | Q9Y5K5 | 330,000 tested, 0.33% active | purified proteasome/UCH37, Ub-AMC cleavage fluorescence | AID 588478 | inhibition, % (test concentration not listed);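 active = mean of two replicates above 20%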;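 note: 0% = compound-free wells with enzyme and 100% = wells lacking proteasome; stock transfer was 100 nL into about 20 µL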
Target sequence (Q9Y5K5 whole entry, looked up): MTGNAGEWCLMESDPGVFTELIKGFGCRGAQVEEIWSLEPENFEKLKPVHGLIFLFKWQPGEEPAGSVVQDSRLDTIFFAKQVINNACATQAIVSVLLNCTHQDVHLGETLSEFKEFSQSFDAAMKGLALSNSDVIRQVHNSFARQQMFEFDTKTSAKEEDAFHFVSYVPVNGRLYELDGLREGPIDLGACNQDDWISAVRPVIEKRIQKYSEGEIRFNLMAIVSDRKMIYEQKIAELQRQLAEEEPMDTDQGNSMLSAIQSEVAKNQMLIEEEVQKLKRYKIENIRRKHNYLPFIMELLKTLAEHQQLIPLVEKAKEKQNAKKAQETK
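Assay system: Proteasome-bound UCH37. Buffer or medium: pH 7.4 Tris-HCl (50 mM) with ovalbumin, ATP-MgCl2, DTT. Incubation: 30 min preincubation with enzyme, 25 min cleavage at room temperature. Measured by: fluorescence, ex 355 nm, em 460 nm. Read-out basis: percent inhibition. Control set: wells without proteasome as full block, compound-free enzyme plus substrate as uninhibited.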
rRNA inh HTS: inhibits bacterial ribosomal RNA function over humanized ribosomes. E. coli WT GFP vs humanized-ribosome RFP mutants, fluorescence, 24 h; stronger effect = lower value; DMSO median 0, no signal -100. GFP signal change (wild-type ribosome), % (concentration not given with the values). 350,000 tested, 1.6% active. AID 720706;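 active = significant combined selectivity score with lowered wild-type GFP, culture density cut under 30%, mutant RFP and density less affected; inactive = any of these conditions unmet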; note: one replicate is shown; some compounds called inactive have numbers as strong as hits
FGF22 binding: shifts melting point of recombinant human FGF22; Q9HCT0; recombinant FGF22 thermal shift, SYPRO orange fluorescence; percent of sucrose octasulfate shift, DMSO zero; calls only at 9.99 µM; 340,000 tested, 1.5% active;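 active = melting point raised past a set limit in the mean and every replicate; three in four hits are not shown here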
Target sequence (Q9HCT0 whole entry, looked up): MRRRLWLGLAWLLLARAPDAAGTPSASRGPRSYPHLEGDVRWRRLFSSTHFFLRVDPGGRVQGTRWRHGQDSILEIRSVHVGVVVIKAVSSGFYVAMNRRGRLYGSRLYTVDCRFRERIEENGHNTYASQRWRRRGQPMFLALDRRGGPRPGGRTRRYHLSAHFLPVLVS
ALR inh: blocks human ALR sulfhydryl oxidase activity | P55789 | purified ALR, DTT oxidation, H2O2 HRP-luminol luminescence | inhibition, % (test concentration not listed) | 290,000 tested, 3.8% active;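 active = mean and each replicate at 75% or more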;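 note: stock transfer was 7.5 nL into about 7.5 µL; 0% = neutral wells and 100% = wells with inactivated enzyme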
Target sequence (P55789 whole entry, looked up): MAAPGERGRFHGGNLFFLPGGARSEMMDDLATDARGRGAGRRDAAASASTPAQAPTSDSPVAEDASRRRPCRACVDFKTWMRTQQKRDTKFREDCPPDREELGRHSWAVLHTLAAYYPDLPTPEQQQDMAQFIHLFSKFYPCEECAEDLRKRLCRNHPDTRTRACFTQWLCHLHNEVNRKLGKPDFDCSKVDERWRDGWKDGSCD
rRNA inh HTS OD600: further read-out of rRNA inh HTS, marked with its call; OD600 change, %; measured here: OD600 growth;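 optical density of the mix in the first replicate; 0 = DMSO median and -100 = no signal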
rRNA inh HTS RFP: also measured in rRNA inh HTS; calls as there; RFP signal change, %; measured here: RFP humanized mutant strains;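 first replicate; 0 = DMSO median and -100 = no signal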
Starred values were filed as active, the others as inactive; i = inactive; nt = not tested or not shown. Some of the compounds tested; rates above refer to the full screens.

SMILES | HNF4A DNA FP | Beta2AR agonist | Ecoli growth | UCH37 inh | rRNA inh HTS | rRNA inh HTS OD600 | rRNA inh HTS RFP | FGF22 binding | ALR inh
CSCCC1Nc2ccc(S(=O)(=O)N3CCOCC3)cc2NC1=O (stereo unspecified) | 2.1 | -4.7 | 0.717 | 13.9 | 24.7 | 9.8 | 4.6 | i | nt
Cc1cccc(N2CCN(c3ccc(NC(=O)/C=C\C(=O)O)cc3)CC2)c1 | -1.6 | -4.8 | 0.666 | 1.3 | -3.1 | 0.4 | 46.2 | i | 99.0*
Cc1ccccc1NS(=O)(=O)c1cc(C(=O)NCc2ccco2)ccc1C | 2.1 | 22.5 | 0.639 | 1.0 | nt | nt | nt | nt | -3.6
COc1ccc(Nc2ccc([N+](=O)[O-])cc2[N+](=O)[O-])cc1 | 2.5 | -3.0 | 0.671 | 5.6 | nt | nt | nt | nt | 4.0
CCOC(OCC)c1cc2ccccc2cn1 | 3.1 | -1.4 | 0.627 | 2.5 | 14.3 | 17.0 | 1.8 | i | -5.4
NC(=O)C1CCN(C(=O)COc2ccc3ccccc3c2Br)CC1 | 2.2 | -0.2 | 0.692 | 1.2 | -3.3 | 8.9 | -1.3 | i | -0.8
CNC(=O)CN(C1CCCCC1)S(=O)(=O)c1ccc(F)cc1 | -0.8 | -4.4 | 0.644 | 2.2 | nt | nt | nt | nt | nt
CC(C)C(=O)Nc1ccc(C(=O)Nc2nnc(C(C)C)s2)cc1 | -0.5 | -20.1 | 0.712 | 0.6 | 16.1 | 16.9 | 1.0 | nt | -0.3
COc1ccccc1NCc1nnc(-c2ccccc2)o1 | 4.8 | -8.6 | 0.678 | 3.4 | -17.4 | -17.5 | 1.6 | i | nt
CC(=O)c1ccc(Oc2nc(-c3cccnc3)nc3ccccc23)cc1 | 11.8 | -8.0 | 0.705 | -2.0 | 3.3 | 2.4 | 1.4 | i | 0.4
Cc1ccc(N2C(=O)N3[C@H](c4ccc(F)cc4)[C@@H]4C(=O)N(C5CCCCC5)C(=O)[C@@H]4[C@]3(Cc3ccccc3)C2=O)cc1 | -2.2 | -2.2 | nt | 0.6 | 14.6 | 16.9 | -5.1 | i | 0.6
Cc1cc(OCC(=O)Nc2cccnc2)c2c(C)c(C)c(=O)oc2c1 | -0.8 | 7.1 | 0.701 | -8.4 | 7.0 | 0.3 | 0.1 | i | -1.9
C(=NOCCc1ccccc1)c1cccnc1 | -3.5 | -5.6 | 0.618 | 2.1 | -0.6 | -2.8 | 0.2 | i | nt
CCc1nc2ccccc2c(C(=O)OCc2nnc(-c3ccccc3)o2)c1C | 5.3 | 8.0 | 0.641 | 1.4 | nt | nt | nt | nt | 7.0
O=c1[nH]c(-c2ccccc2)nc(CN2CCCCC2)c1O | 0.2 | -6.6 | nt | nt | 12.3 | 1.1 | 1.7 | i | nt
O=C(Nc1ccc(S(=O)(=O)Nc2ccc(Cl)cc2)cc1)C1CCCO1 (stereo unspecified) | -0.5 | -2.0 | 0.713 | -0.4 | nt | nt | nt | nt | -1.4
Cc1ccc(CNC(=O)CC2Nc3c4ccccc4nc(=S)n3C2=O)cc1 (stereo unspecified) | nt | nt | 0.679 | 3.6 | 4.0 | 1.4 | 2.2 | i | 17.5
COc1ccc(CNC(=O)COC(=O)c2nc3nc(C)cc(C)n3n2)cc1 | 0.8 | 8.0 | 0.647 | -2.5 | 2.5 | 5.0 | -0.8 | i | 1.8
O=C(CSc1ncnc2c1oc1ccccc12)Nc1nccs1 | 11.0 | 1.3 | 0.75 | 2.1 | 6.0 | 6.4 | 0.6 | i | nt
COc1ccc(CNC(=O)C(C)OC(=O)c2cccn2C)cc1 (stereo unspecified) | 14.1 | -2.0 | 0.731 | -1.4 | nt | nt | nt | nt | nt
O=C(CSc1nnc(CNC(=O)c2ccccc2F)o1)Nc1cccc(C(F)(F)F)c1 | 1.0 | -3.5 | 0.613 | 0.2 | 0.8 | 5.1 | 0.3 | i | -30.7
NS(=O)(=O)c1ccc(N2CCN(CCOc3ccc(Cl)cc3)CC2)nc1 | 4.0 | 8.0 | 0.606 | 1.5 | -15.1 | -22.7 | 8.3 | i | -0.8
CCC(=O)N1CCN(c2ccc(NC(=O)c3cc4ccccc4o3)cc2Cl)CC1 | -5.4 | 28.2 | 0.709 | 0.4 | nt | nt | nt | nt | -4.0
O=C(OCCCN=C1NS(=O)(=O)c2ccccc21)c1ccc([N+](=O)[O-])cc1 | 0.9 | -6.8 | 0.706 | 1.0 | 6.7 | 3.2 | 0.0 | i | -18.9
COCCOC(=O)c1c(C)oc2ccc(NS(=O)(=O)c3ccc(C(=O)O)cc3)cc12 | -1.9 | 5.0 | 0.669 | 3.8 | nt | nt | nt | nt | -3.7
S=C(c1ccco1)N1CCOCC1 | 1.1 | -9.3 | nt | nt | 13.7 | 9.3 | 5.8 | i | nt
COc1cccc(CC(=O)Nc2ccc(S(=O)(=O)N3CCCCC3)cc2)c1 | -5.3 | -3.8 | 0.663 | 0.9 | -9.3 | -28.9 | 4.0 | nt | -1.7
Cc1onc(-c2ccccc2Cl)c1C(=O)N1CCN(c2nc3ccccc3s2)CC1 | -0.9 | 2.0 | 0.703 | 1.0 | nt | nt | nt | nt | 0.2
O=C(c1ccc(F)cc1)N1C2CCC1CC(O)(c1ccccc1F)C2 (stereo unspecified) | -2.0 | 1.1 | 0.762 | 2.1 | nt | nt | nt | nt | -15.0
CCNC(=S)N1CCCCC1CO (stereo unspecified) | -3.0 | -6.3 | 0.663 | 0.3 | 21.2 | 24.7 | 5.6 | i | -1.0
Cc1ccc(Cl)c(NC(=O)COC(=O)c2cc[n+]([O-])cc2)c1Cl | 7.5 | 4.7 | 0.676 | -0.4 | 2.7 | 8.9 | -3.8 | i | -1.1
O=C(CSc1nnc(SCc2ccccc2)s1)N/N=C/C=C/c1ccccc1[N+](=O)[O-] | -0.4 | -7.9 | nt | nt | nt | nt | nt | nt | -10.7
COc1ccc(NC(=O)c2sc3nc(-c4cccnc4)ccc3c2N)cc1 | -35.9 | 1.3 | nt | nt | 7.3 | -12.7 | 5.7 | nt | -0.5
Cc1ccc(-c2nc(P(=O)(c3ccccc3)c3ccccc3)c(N3CCOCC3)o2)cc1 | 2.9 | -4.0 | 0.667 | -2.4 | -21.1 | -37.1 | 3.6 | i | -4.1
Cc1nc2cc(NC(=O)NCc3ccccc3)ccc2o1 | -0.6 | -0.8 | 0.716 | 2.7 | -10.1 | 2.3 | 3.4 | nt | -2.3
CCOC(=O)N1CCN(C(=O)CCc2nc3sc4c(c3c(=O)[nH]2)CCCC4)CC1 | -0.6 | -21.7 | 0.702 | 2.3 | 8.0 | 10.1 | -0.3 | i | nt
COc1cccc(C(=O)N2CCC(C(=O)N3CCN(C)CC3)CC2)c1 | 5.6 | -1.9 | 0.678 | 0.0 | 10.3 | 9.9 | -0.5 | i | nt
Cc1csc(=O)n1CCC(=O)OCC(=O)Nc1cccc(C#N)c1 | -0.3 | 2.1 | 0.62 | 2.1 | 6.2 | 9.2 | 2.9 | i | 2.0
O=[N+]([O-])c1ccc2nc(C(O)C(O)c3nc4ccc([N+](=O)[O-])cc4[nH]3)[nH]c2c1 (stereo unspecified) | -2.2 | -6.5 | 0.651 | 4.6 | 9.6 | 8.3 | -1.5 | i | -12.9
COc1ccccc1CC(=O)Nc1ccc(-c2noc(COc3cccc(C)c3C)n2)cc1 | 4.2 | -7.1 | 0.734 | 6.5 | 0.7 | 6.6 | -0.7 | i | -1.6
COCC(=O)Nc1ccc(S(=O)(=O)Nc2onc(C)c2C)cc1 | -0.4 | nt | nt | nt | 0.7 | 10.8 | -2.1 | i | nt
CCN1C(=O)[C@H]2[C@@H](c3ccc(C)cc3)N[C@]3(CCCN(Cc4ccco4)C3=O)[C@H]2C1=O | -6.4 | nt | nt | nt | 0.4 | 2.8 | -6.0 | i | nt
O=C(N/N=C/c1cccc([N+](=O)[O-])c1)C(=O)N1CCCCCC1 | -3.4 | -1.4 | nt | nt | 0.5 | 0.8 | -0.2 | i | -15.4
CCCCCCCCCCCC(=O)N/N=C/c1ccco1 | 0.2 | 1.8 | nt | nt | nt | nt | nt | nt | 25.6
COc1ccc(NC(=O)CC2C(=O)N(c3ccc(OC)cc3)C(=O)N2CCc2cccs2)cc1 (stereo unspecified) | 0.5 | -6.9 | 0.612 | -0.1 | -4.4 | -11.7 | 5.2 | i | -2.2
CNc1nc(N)c([N+](=O)[O-])c(NC2CCCCC2)n1 | -0.2 | -1.0 | 0.662 | 10.2 | 11.1 | 5.3 | 0.5 | i | 2.4
O=P(C(=NCCO)NO)(N1CCOCC1)N1CCOCC1 | -3.1 | -3.2 | 0.701 | 0.1 | 4.1 | 13.6 | 5.6 | nt | 5.2
CCc1nn2c(=O)cc(COc3ccc(/C=C4\C(=N)N5N=C(C)SC5=NC4=O)cc3)nc2s1 | -7.9 | -4.0 | 0.703 | 6.4 | -5.7 | -1.5 | -3.2 | i | nt
Cc1cccn2c(=O)c(C=O)c(NCc3ccccc3)nc12 | 3.4 | -13.1 | 0.663 | -57.9 | 17.1 | 2.8 | 0.7 | i | -15.2
O=C(O)CCCN1C(=O)/C(=C/c2ccncc2)SC1=S | -6.6 | 2.5 | 0.686 | 9.6 | -1.5 | 5.8 | -8.5 | i | nt
O=C(NC1CCC(O)CC1)c1cccnc1Sc1ccccc1Cl (stereo unspecified) | 1.2 | -3.0 | 0.663 | -0.9 | 4.5 | 9.3 | -1.7 | i | -21.3
Cc1cccc(NC(=O)CCNC(=O)c2ccccc2Cl)n1 | -2.7 | 6.2 | 0.722 | 1.0 | 11.4 | 8.9 | -0.2 | i | -9.9
Cc1ccccc1SCC(=O)Nc1ccc(N2CCOCC2)cc1 | 2.4 | -2.6 | 0.7 | 5.9 | -0.9 | 4.4 | 0.9 | i | 31.2
COc1cc(SC)ccc1C(=O)Nc1ccc(C)cc1C | 2.0 | -2.0 | 0.685 | -0.4 | nt | nt | nt | nt | -2.4
COc1ccc(C(=O)NCCCn2cccn2)cc1OC1CCN(C(C)=O)CC1 | 0.8 | -4.8 | 0.705 | 1.2 | 9.7 | 3.2 | 1.2 | i | nt
Cc1ccc(N=C2NC(=O)/C(=C/c3cccs3)S2)cc1C | 34.1 | 12.3 | 0.69 | 6.6 | nt | nt | nt | nt | -5.3
Cc1n[nH]c(=O)c2c(NC(=O)COC(=O)c3cc(F)cc(F)c3)oc(C)c12 | -0.3 | 15.2 | 0.635 | 1.9 | 0.1 | 2.4 | -1.0 | i | -5.3
O=C(CCl)Nc1c2c(nn1-c1ccccc1)CSC2 | 2.5 | -1.2 | nt | nt | 3.1 | 10.2 | -3.5 | i | nt
N#Cc1cccc(NC(=O)N2CCC(c3nc4c(nnn4Cc4cccc(Cl)c4)c(=O)[nH]3)CC2)c1 | -6.3 | -1.7 | 0.697 | 1.1 | nt | nt | nt | nt | 0.0
O=Cc1ccc(-c2ccc(C(=O)O)cc2)o1 | -3.4 | -2.9 | 0.7 | -28.8 | 1.7 | 0.8 | -1.7 | i | -2.4

Given as comma-separated lines: entries from further up
mol,HNF4A DNA FP,Beta2AR agonist,Ecoli growth,UCH37 inh,rRNA inh HTS,rRNA inh HTS OD600,rRNA inh HTS RFP,FGF22 binding,ALR inh
O=P(C(=NCCO)NO)(N1CCOCC1)N1CCOCC1,-3.1,-3.2,0.701,0.1,4.1,13.6,5.6,nt,5.2
CCc1nn2c(=O)cc(COc3ccc(/C=C4\C(=N)N5N=C(C)SC5=NC4=O)cc3)nc2s1,-7.9,-4.0,0.703,6.4,-5.7,-1.5,-3.2,i,nt
